AID504770: E. coli YBA685 growth inhibition, screen for V. cholerae RctB inhibitors; E. coli YBA685 rctB-dependent plasmid, OD600 growth, 3 h; hits give low values; z-score (no concentration beside the values); 130,000 compounds, 0.27% hits; AID 504770;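 active means z-score under -2 on both plates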;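 further: wells of about 30 µL received 100 nL stock; score is relative to mean and SD of the test wells; the first replicate is given; strong numbers were not always called active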
CapD inh: CapD enzyme inhibition; purified CapD enzyme, fluorescence intensity read-out; hits give low values; some hits fall short of the stated cut; z-score (concentration not given with the values); 140,000 compounds, 0.23% hits;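 active means z-score under -4 in either of two replicates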;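 further: stock transfer was 100 nL into about 40 µL; score is relative to mean and spread of the plate; one replicate is shown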
* = called active by the depositor; nt = not tested or not shown; & = joins results of further samples.

mol | AID504770 | CapD inh
CCC(=O)Nc1ccc(OCc2ncc(C(F)(F)F)cc2Cl)cc1 | 3 | -1.6
COc1ccc(S(=O)(=O)N2CCc3ccccc32)cc1C(=O)Nc1ccc2c(c1)OCCO2 | -1 | nt
CC1=CC(C)(C)NC(=O)N1c1ccc(C)cc1 | 1.6 | 0.42
CCOCCCNc1n[nH]c(=S)s1 | -0.55 | nt
Cc1ccc(S(=O)(=O)Nn2c(SCC(=O)N3CCN(c4ccccc4)CC3)nc3ccccc3c2=O)cc1 | nt | 0.025
O=C(NC(=S)/C(=C(/[O-])c1ccccc1)[n+]1ccccc1)c1ccccc1 | -0.4 | -1.1
CN(c1cc(C(F)(F)F)ccn1)N1C(=O)CSCC1=O | -0.75 | -0.06
CCOC(=O)C1=C(CSc2nc(CC)c(C)cc2C#N)OC(N)=C(C#N)C1c1cccc(OCc2ccccc2)c1 (stereo not drawn) | nt | 0.33
COc1ccc(CCNC(=O)CSc2nc3c(cnn3-c3ccc(C)cc3)c(=O)[nH]2)cc1OC | 1.9 | -0.64
NNC(=O)COc1ccc(Cl)cc1Cl | 3.6 | -0.83
O=C(CSC1=NCCS1)c1ccccc1Br | 1.3 | -0.25
COc1ccc(-c2nc3c4cc(I)ccc4c4ccccc4c3[nH]2)c(OC)c1 | nt | 1.5
CN(C1CCCCC1)S(=O)(=O)c1ccc(S(=O)(=O)N(Cc2ccccn2)Cc2ccco2)cc1 | -0.25 | nt
COc1cc(/C=N/NC(=O)c2ccc(O)cc2)ccc1OCC(=O)N1CC(C)OC(C)C1 (stereo not drawn) | 1.9 | nt
Cc1cc(NC(=O)C2CC(=O)N(Cc3ccccc3)C2)no1 (stereo not drawn) | -1 | nt
O=C(/C=C(\O)c1ccccc1)C(=O)/C=C1\NC2(CCCCC2)Cc2ccccc21 | nt | -0.27
CC1(C)CC(=O)C2=C(C1)OC1=C(C(=O)CC(C)(C)C1)C2c1cc2c(cc1Cl)OCO2 | nt | 0.27
CCOC(=O)N1CCC(NC(=O)C2CCN(c3ncnc4c3sc3cccc(F)c34)CC2)CC1 | -0.55 | -0.19
Cc1nn(CC(N)=S)c(C)c1Br | -0.15 | 0.49
Cc1ccn2c(CN3CCNCC3)c(C)nc2c1 | -0.85 | nt

Shown field by field: part of the list above.
O=C(CSC1=NCCS1)c1ccccc1Br
  AID504770: 1.3	CapD inh: -0.25

COc1ccc(-c2nc3c4cc(I)ccc4c4ccccc4c3[nH]2)c(OC)c1
  AID504770: nt	CapD inh: 1.5

CN(C1CCCCC1)S(=O)(=O)c1ccc(S(=O)(=O)N(Cc2ccccn2)Cc2ccco2)cc1
  AID504770: -0.25	CapD inh: nt

COc1cc(/C=N/NC(=O)c2ccc(O)cc2)ccc1OCC(=O)N1CC(C)OC(C)C1 (stereo not drawn)
  AID504770: 1.9	CapD inh: nt

Additional entries
mol | AID504770 | CapD inh
CCCCCC1CCC(c2ccc(NC(=O)Cc3ccccc3)cc2)CC1 (stereo not drawn) | nt | 0.17
O=C(COC(=O)C1CC1)Nc1ccccc1 | 0.25 | nt
CCOC(=O)c1oc2nc(-c3ccco3)cc(-c3ccco3)c2c1N | -1.2 | 6.8
CC(=O)Oc1ccc2nc(-c3cccs3)oc(=O)c2c1 | 1.4 | -0.005
COc1ccc(CC(=O)Nc2cc(C)c3c(=O)oc4ccccc4c3n2)cc1 | 0 | nt
O=C(Oc1ccccc1)c1cccs1 | nt | -0.2
Cc1ccc(-n2c(SCC(=O)C(C)(C)C)nc3ccccc3c2=O)cc1 | 2.5 | 0.17
COc1ccc(Cl)cc1Nc1nc2nonc2nc1Nc1cc(Cl)ccc1OC | nt | 0.39
COc1ccc(/C=N/c2oc(-c3ccccc3)c(-c3ccccc3)c2C#N)cc1Br | nt | -0.4
CCOC(=O)c1c[nH]c2ccc(C)cc2c1=O | -0.35&0.75 | 0.51&-0.045
Cc1[nH]c(-c2ccc3c(c2)OCO3)nc1C(=O)O | 0 | 11
N#CC1=C(N)N(c2cccc(C(F)(F)F)c2)C2=C(C(=O)CCC2)C1c1cccc([N+](=O)[O-])c1 (stereo not drawn) | nt | -1.9
COc1ccc(/C=C(/C#N)S(=O)(=O)c2ccccc2)cc1Cn1nc(C)cc1C | -0.85 | 0.09
CN(C(=O)COC(=O)c1ccc2c(=O)n3c(nc2c1)CCC3)c1ccccc1 | -0.2 | nt
COc1cccc(NC(=S)C(C#N)C(=O)N2CCC(C)CC2)c1 (stereo not drawn) | nt | -1.5
CN(C)C(=O)N1CCCC(C(=O)NCc2ccccc2)C1 (stereo not drawn) | -0.75 | 0.015
O=C(Nc1ccccc1)c1ccc2c(c1)CCO2 | -2.2 | -0.23
COC(=O)/C=C1\SCC(=O)N1CC(=O)NCCc1ccc(OC)c(OC)c1 | 0 | nt
O=C1CCCC2=C1C(c1ccccc1)C1=C(CCCC1=O)O2 | -0.1 | nt
CCC1CCCCN1C(=O)c1sc2nc(C)cc(C)c2c1N (stereo not drawn) | -0.2 | nt
CC(Oc1ccc(F)cc1)c1n[nH]c(=S)o1 (stereo not drawn) | -0.9 | nt
O=C1C=C(Nc2ccccc2)CO1 | -0.8 | -0.81
COc1ccc(-n2c(=O)c3c4c(sc3n3c(C)nnc23)COC(C(C)C)C4)cc1 (stereo not drawn) | 2.2 | -0.35
O=C(CSc1nnc2c(n1)[nH]c1ccccc12)c1ccccc1 | -0.3 | nt
CCOC(=O)C1=C(C)N=c2s/c(=C/c3ccc(N(CC)CC)o3)c(=O)n2C1c1ccc(OC)cc1OC (stereo not drawn) | nt | -0.55
CC1(C)Cc2ccccc2-c2c1c(=O)n(Cc1ccccc1)c1n[nH]c(=S)n21 | 1.2 | -0.66
CC(C)C(=O)OCC1CCCN2CCCCC12 (stereo not drawn) | -0.25 | 0.83
O=C(Oc1ccc(-c2csnn2)cc1)c1cccs1 | 0.5 | 0.12
CCOC(=O)c1sc2nc(C)nc(N3CCc4ccccc4C3)c2c1C | nt | 3.2
CCN(Cc1ccc(OC)cc1OC)C(=O)c1cnc(OC)cc1C(F)(F)F | 0.1 | 0.33

Next compounds
Molecule,AID504770,CapD inh
Cc1ccc(OC(=O)C(C)(C)C)cc1C,-1.1,0.17
CC1=C(c2ccc(C)cc2)S(=O)(=O)NC1=NCC(=O)O,-0.8,-1
N#CC1=C(N)OC(c2ccco2)=C(C#N)C1c1ccco1 (stereo not drawn),-1.1,-2.7
N=C(N)SCC(=O)Nc1ccccc1,-0.4,nt
COC(=O)c1ccccc1NC(=O)Cn1sc2ccccc2c1=O,-2.2,nt
COCCNC(=O)CCC(=O)N1CCN(c2nc(-c3ccc(Cl)cc3)c(S(C)(=O)=O)cc2C#N)CC1,nt,0.075
CSC(=NC#N)N1CCC(C(N)=O)CC1,nt,0.23
COc1ccc(Nc2nc(OC)nc(OC)n2)cc1,1.6,nt
CCOC(=O)c1c(C#N)c(SCC(=O)Nc2ccc(OC)cc2)nc2c1CN(CC)CC2,0.95,0.03
O=C(c1cccnc1Oc1ccccc1)N1CCOCC1,-0.95,-0.32
COc1ccc(CCN2C(=O)CC(C(=O)Nc3ccc(C(=O)O)cc3)SC2=Nc2ccccc2)cc1OC (stereo not drawn),nt,-0.26
Cc1nn(C)c(C)c1S(=O)(=O)N1CCC(C(=O)NC2CCCCCC2)CC1,0.15,-0.89
CC(C)(C)c1cn2c3ccccc3n(N)c2n1,0.85,-0.22
O=C(NCc1ccco1)c1ncoc1-c1ccc2ccccc2c1,-0.7,nt
Cc1ccc(CC(=O)NCCN(C)C)cc1,2.2,0.56
O=C(O)c1ccccc1S(=O)O,2.4,-0.36
NCCc1ccc(O)c(O)c1,0.35,0.16
O=C(Nc1ccccc1C(=O)N/N=C/c1ccco1)c1ccc(Cl)cc1,0.25,0.49
CCCCCCn1c(COc2ccccc2F)nnc1SCC(=O)/C(C#N)=C(\C)N,0.15,nt
CCCCn1ccnc1C(=O)c1cc(Cl)cc(Cl)c1,-0.25,-0.3
CC(=O)On1cc(F)c(=O)[nH]c1=O,-1.5,0.16
CCOC(CCn1ccc(O)c(Cc2ccc(Cl)cc2)c1=O)OCC,nt,-0.26
COc1ccc(-c2cc(C(F)(F)F)n3nc(C(=O)NCCCn4ccnc4)cc3n2)cc1,nt,34
CN(C)S(=O)(=O)c1ccc(S(=O)(=O)N2CCCC(C(=O)NC(C)(C)C)C2)cc1 (stereo not drawn),1.8,nt
C=CCN1C(=O)c2ccccc2Sc2ccc(C(=O)NC3CCCCC3C)cc21 (stereo not drawn),1.7,-0.81
CCS(=O)(=O)c1ccc(O)c(NC(=O)CCCC(=O)O)c1,-0.55,1.1
C/C(=C\C(=O)c1ccc(C)o1)Nc1ccc(C(=O)O)cc1C,-1.1,-4*
CN1CC23C=CC(O2)C(C(=O)O)C3C1=O (stereo not drawn),-0.35,-0.26
CC1CN(S(=O)(=O)c2cccc(C(=O)NCC(c3ccco3)N(C)C)c2)CC(C)O1 (stereo not drawn),0.1,nt
CCOC(=O)c1c(C)[nH]c2ccc(C)cc2c1=O,-0.2,nt
O=C(NNC(=O)C1CCN(Cc2ccc(Cl)c(Cl)c2)CC1)C1CC1,nt,-0.44
COc1ccc(S(=O)(=O)N2CCN(Cc3cc4cccc5c4n(c3=O)CCC5)CC2)cc1,nt,-0.11
COc1ccc(-c2cc(C)nc(N)c2C#N)cc1,0.3,21
Cc1nn2cc(-c3ccc(-c4ccccc4)cc3)nc2s1,1.8,0.63
CCCCN1C(=O)C(=O)/C(=C(\O)c2ccc(OC)cc2)C1c1ccc2c(c1)OCO2 (stereo not drawn),-0.15,-1.4
c1ccc2c(c1)oc1c(N3CCNCC3)ncnc12,0,nt
N#Cc1ccccc1N1C(=O)C2C3c4ccccc4C(c4ccccc43)C2C1=O (stereo not drawn),nt,0.29
Cc1c(C(=O)OC(C)C(=O)N(C)c2ccccc2)oc2ccccc12 (stereo not drawn),-0.15,nt
CC1=NN(Cc2ccccc2)C(=O)/C1=C\c1ccc(N(C)C)cc1,-0.4,nt
COC(=O)c1nn(-c2ccccc2)c(Cl)c1/C=N/OCc1cccc(F)c1,nt,-0.49
Nc1ccc2nc(SCc3cccc(F)c3)sc2c1,-0.55,-0.065
O=C1C=C(c2ccccc2)C[C@H](c2cccs2)[C@H]1n1nnc([N+](=O)[O-])n1,nt,5.8
O=C1/C(=C\c2ccco2)N=C(SCc2nc3sc4c(c3c(=O)[nH]2)CCCC4)N1c1ccc(OC(F)F)cc1,-1.1,nt
N#Cc1ccc(CSc2nc(-c3cccs3)c3c(c2C(=O)O)CCCC3)cc1,-0.2,1.8
CN(C1CCCCC1)S(=O)(=O)C1CCS(=O)(=O)C1 (stereo not drawn),-0.75,0
O=C(Cn1cc(C(F)(F)F)ccc1=O)N1CCCC1,0.9,nt
COc1ccc(NC(=O)CSCc2cc(=O)[nH][nH]2)cc1,0,nt
COc1cccc(/C=C/[N+](=O)[O-])c1OC,nt,-1.6

In the list so far, 3 have bromine:
Molecule,AID504770,CapD inh
O=C(CSC1=NCCS1)c1ccccc1Br,1.3,-0.25
Cc1nn(CC(N)=S)c(C)c1Br,-0.15,0.49
COc1ccc(/C=N/c2oc(-c3ccccc3)c(-c3ccccc3)c2C#N)cc1Br,nt,-0.4

(list continues)
Molecule,AID504770,CapD inh
COc1cccc(/C=N/NC(=O)c2oc3nc(-c4ccccc4)cc(-c4ccco4)c3c2N)c1,-0.1,0.49
O=C1/C(=C/c2c[nH]c3ccccc23)Sc2ccccc21,nt,-0.27
Cc1ccc(N2C(=O)CC(N3CCN/C3=C3/CC/C(=C\c4ccccc4)C3=O)C2=O)cc1 (stereo not drawn),-2.1,nt
COc1ccc(Br)cc1S(=O)(=O)NCc1ccc2c(c1)OCO2,3.2,-1.1
Cc1ccc(-n2nc3c(c2NC(=O)c2ccc(S(=O)(=O)N4CCCCC4)cc2)CSC3)cc1,nt,-0.23
O=C(Oc1ccccc1)c1ccc(F)cc1,-1.1,nt
Cc1ccc(-n2nc3c(c2NC(=O)COc2ccc(Cl)cc2)CSC3)c(C)c1,-0.45,-0.47
COc1cc(-c2nc(C=Nc3ccc(Br)cc3)c(O)o2)cc(OC)c1OC,nt,0.47
COc1ccc(S(=O)(=O)Nc2ccc3c(c2)c2c(n3S(=O)(=O)c3ccc(OC)cc3)CCC2)cc1,nt,-0.03
CC(C)C(NC(=O)Cc1c[nH]c2ccccc12)C(=O)NCc1ccccc1C(F)(F)F (stereo not drawn),nt,0.08
CCOc1ccccc1N(C)S(=O)(=O)c1ccc2[nH]cc(C(=O)N3CCC4(CC3)OCCO4)c(=O)c2c1,nt,4.9
Cc1ccc(C(=O)CSC2=C(C#N)C(c3ccco3)C3=C(CCCC3=O)N2)cc1 (stereo not drawn),0.55,-0.3
O=C(CSCc1c(F)cccc1Cl)Nc1ccc(F)c(Cl)c1,nt,-0.1
CN1CCN(c2ccc(-c3ccnn3C(=O)Nc3cccc(C(F)(F)F)c3)cc2)CC1,-0.5,1.7
O=c1oc(-c2ccccc2)nc2scc(-c3ccccc3)c12,1.5,2
COc1ccccc1NC(=O)/C=C1\SCC(=O)N1C,1.1,nt
O=S(=O)(c1ccccc1)N(CC(O)CN(Cc1ccccc1)Cc1ccccc1)c1cccc2ccccc12 (stereo not drawn),nt,0.24
COc1ccc(C2C(=O)c3cc(OC)c(OC)cc3C2c2ccccc2)cc1OC (stereo not drawn),0.7,0.55
COc1ccc(OC)c2nc3c(nc12)C(=O)c1ccccc1-3,nt,-0.95
Cc1nc(N2CCC(C)CC2)c2c(C)c(C(=O)N(C)CCc3ccccn3)sc2n1,nt,0.64
CCN(CC)C(=O)/C=C/c1cn(-c2ccccc2)nc1-c1ccccc1,0.8,-0.14

Bioassay records: PubChem BioAssay, ICCB-Longwood Screening Facility, Harvard Medical School
